miR-21 reporter: miR-21 reporter, rising signal; HeLa miR-21 FLuc reporter, luciferase, 48 h; Potency, µM (series often up to 38.3 µM), without a hit: top-dose reporter change, positive = more light; 340,000 tested, under 10 active; active = well fitted rising curve with a large enough effect; inconclusive = small, poorly fitted or top-dose-only effect; inactive = no such curve, though single readings can be large or run the other way;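 further: % of control where 0% means no effect; miR-21 action dims this reporter so a rising signal means less miR-21 action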
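Using DMEM plus 10% FBS, HeLa miR-21-FLuc cells are incubated with test compounds (final up to about 40uM) for 48 hours; firefly luciferase signal is then imaged following reagent-mediated lysis.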
GLA inh pH 4.5: blocks human alpha-galactosidase A at pH 4.5. 230,000 tested, under 10 active. AID 1467. P06280. purified enzyme, 4-MU-alpha-Gal fluorescence, pH 4.5. activity change, negative = inhibition, % at 105 µM; inconclusive = small, poorly fitted or top-dose-only inhibition, or a rising curve; inactive = flat fitted curve, though single readings scatter; no compound was filed as active;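 further: 0% = full activity with enzyme and -100% = basal without enzyme; dose as in the result columns while the protocol names 77 µM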
Rango complex inh: prevents formation of the Rango-importin beta complex; actives 0.031% (n = 340,000); Rango CFP/YFP FRET sensor + importin beta, 45 min; Potency, µM (series often up to 92.2 µM), without a hit: at the highest dose inhibition of complex formation; AID 540263; Q14974; active = rising FRET ratio curve, often small or poorly fitted; inconclusive = mostly compound fluorescence or quenching in the first reads; inactive = flat curves in all reads;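 further: potency means the concentration at half of the fitted maximal effect; 0% = DMSO wells and 100% = buffer wells lacking importin beta; nearly all actives have a fitted effect of over 15% in size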
Target sequence (Q14974 whole entry, looked up): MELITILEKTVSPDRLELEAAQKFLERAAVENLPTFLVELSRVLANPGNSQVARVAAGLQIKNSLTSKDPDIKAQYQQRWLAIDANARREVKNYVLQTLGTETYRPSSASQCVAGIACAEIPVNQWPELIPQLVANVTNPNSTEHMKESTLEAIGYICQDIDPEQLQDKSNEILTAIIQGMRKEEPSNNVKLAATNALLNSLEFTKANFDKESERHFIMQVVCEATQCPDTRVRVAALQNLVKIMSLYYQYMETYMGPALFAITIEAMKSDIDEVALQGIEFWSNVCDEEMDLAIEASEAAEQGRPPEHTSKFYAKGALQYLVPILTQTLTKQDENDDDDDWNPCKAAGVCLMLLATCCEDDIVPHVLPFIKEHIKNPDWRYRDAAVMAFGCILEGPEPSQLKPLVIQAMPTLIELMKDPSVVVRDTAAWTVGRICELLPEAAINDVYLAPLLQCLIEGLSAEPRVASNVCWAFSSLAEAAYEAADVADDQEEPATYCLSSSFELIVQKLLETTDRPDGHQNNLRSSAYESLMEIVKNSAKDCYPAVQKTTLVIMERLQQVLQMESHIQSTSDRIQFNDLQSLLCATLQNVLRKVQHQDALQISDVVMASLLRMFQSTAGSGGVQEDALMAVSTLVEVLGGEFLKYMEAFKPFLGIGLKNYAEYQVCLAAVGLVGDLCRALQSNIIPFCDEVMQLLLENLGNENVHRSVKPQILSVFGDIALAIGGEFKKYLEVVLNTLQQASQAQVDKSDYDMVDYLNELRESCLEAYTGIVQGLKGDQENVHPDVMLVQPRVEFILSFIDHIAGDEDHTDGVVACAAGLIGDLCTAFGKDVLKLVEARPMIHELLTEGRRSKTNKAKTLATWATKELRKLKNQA
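FRET biosensor (snurportin 1 IBB flanked by EYFP and cerulean), 50 nM, with compound 5 min, then 0.125 microM importin beta in PBS, 1 mM DTT, 0.02% Tween-20, 0.1% BSA. CFP/YFP ratio read after 45 min at room temperature; pre-read flags interference.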
Rango dissoc inh: inhibitors of RanGTP-induced Rango-importin beta complex dissociation. AID 540253. Potency, µM (series often up to 46.1 µM), for inactives: at the highest dose activity change, negative = inhibition. O95149+P62826. actives 0.071% (n = 340,000). Biochemical FRET Rango-importin beta, RanGTP-induced dissociation; active means falling FRET ratio curve, often poorly fitted, with flat reads before Ran was added; inconclusive means other falling curves, or compound fluorescence or quenching; inactive means flat or rising ratio curve;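 further: potency means the concentration at half of the fitted maximal effect; % of control where 0% means no effect; nearly all actives have a fitted effect of over 45% in size; -100% = wells without RanGTP and RCC1; the record marks most hits as doubtful in a second field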
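Recombinant Rango FRET biosensor (EYFP–snurportin 1 IBB–cerulean CFP10) at 0.1 uM premixed with 0.25 uM importin beta in PBS, 1 mM DTT, 0.02% Tween-20, 0.1% BSA. Compound added 5 min; RanGTP-RCC1 (0.6 uM Ran, 2 mM GTP, 0.2 uM RCC1) then triggers release, read at 45 min.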
An asterisk follows results filed as active; ? = inconclusive; / = no result given; & = joins results of further samples. Not all compounds are listed; count on the stated rates, not on these rows.

SMILES	miR-21 reporter	GLA inh pH 4.5	Rango complex inh	Rango dissoc inh
O=C(CN1CCN(c2ccccc2)CC1)NC(=O)NCc1ccccc1	/	/	-0.9%	1%
Cc1ccc(C(=O)NCCCNC(=O)c2ccc(Cl)cc2)cn1	-2%	/	4.1%	-17%
Cc1ccccc1NC(=S)NN1CCN(C)CC1	0%	2	-2.3%	-2%
CCC1(C)Cc2ccccc2-c2nc(NCCO)n(-c3ccc(C)cc3)c(=O)c21 (centres undefined)	3%	-2	-1.1%	-1%
C=CCOc1ccc(/C(O)=C2\C(=O)C(=O)N(CCOC)C2c2cccnc2)cc1 (centres undefined)	-7%	-12	-1.8%	14%
CCOc1ccc(N(C)S(=O)(=O)c2ccc(C)c(C(=O)N3CCN(Cc4ccc5c(c4)OCO5)CC3)c2)cc1	/	/	2.8%	-20%
COc1ccc(CN2CCN(C(=O)c3cccc4ccccc34)CC2)cc1Br	26%	/	-2.4%	3%
O=C(C1=NN[C@@H]2C(=O)N(c3cccc(F)c3)C(=O)[C@H]12)c1ccc2ccccc2n1	-19%	-3	0.3%	-7%
O=C(CCSc1nc(-c2ccco2)cc(C(F)(F)F)n1)NCCN1CCOCC1	-3%	3	1.9%	-1%
COC(=O)c1ccc(N=Nc2c(C)[nH]n(-c3ccccc3)c2=O)cc1	2%	/	2.4%	-3%
CC1CCN(S(=O)(=O)c2ccc(NC(=O)c3ccccc3F)cc2)CC1	13%	/	-0.2%	-10%
COc1ccc(Cn2nnnc2C(c2ccc(F)cc2)N2CCN(C3CCCC3)CC2)cc1 (centres undefined)	-2%	-3	0.7%	?
C=CCN1N=C(/C=C/c2ccc(C)cc2)CCC1=O	-64%	3	0.1%	2%
COc1ccc(CCC(=O)NNC(=O)Nc2ccccc2Cl)cc1	-2%	/	0.2%	1%
Cc1cccc(OCCCC(=O)NNC(=O)c2cccc(N(C)C)c2)c1	/	/	3.7%	0%
COc1cccc(N2CCN(C(=O)CCSCc3ccccc3F)CC2)c1	-5%&-5%	-6	-7.1%	-11%
CCC(Oc1ccccc1)C(=O)Nc1ccc(S(=O)(=O)Nc2ncccn2)cc1 (centres undefined)	-3%	/	-1.5%	-4%
S=c1[nH]nc(COc2ccccc2)n1/N=C/c1ccncc1	-4%	6	3.3%	-7%
COc1ccccc1OCCNS(=O)(=O)c1ccc2oc3ccccc3c2c1	-8%	-9	-1.2%	1%
COc1cccc(-c2nc(CS(=O)CC(=O)NCc3ccc4c(c3)OCO4)c(C)o2)c1 (centres undefined)	-3%	-4	4.0%	-4%
COc1ccc(CCNC(=O)CSCC(=O)Nc2cc(S(C)(=O)=O)ccc2Cl)cc1	/	/	2.3%	-6%
COc1ccc(C/C(N)=N/OC(=O)COc2ccccc2C)cc1	-8%	-6	3.4%	23%
N#C/C(=C/c1ccc(N2CCCCC2)cc1)c1cccc(F)c1	-51%	-6	-12%	-29%
N#CC1=C(N)NC(SCc2ccccc2)=C(C#N)C12CCCC2	17%	-9	0.1%	-14%
CCN(CC(=O)NC1CCS(=O)(=O)C1)c1ccc([N+](=O)[O-])cc1C#N (centres undefined)	/	/	1.8%	11%
Cc1ccc(S(=O)(=O)N(C)c2ccc(C(=O)O)cc2)cc1	-5%	7	-2.6%	-11%
COc1ccc(NC(=O)CCC(=O)Nc2cc(OC)c(NC(=O)c3ccco3)cc2OC)c(OC)c1	3%	/	1.5%	-12%
CC1C(=O)CCN(C(C)C)C1C (centres undefined)	3%	-1	-5.1%	-8%
COc1cccc(-n2cc3c(=O)n(C)c(=O)n(C)c3c2)c1	-29%	6	-3.1%	-18%
Cc1cccc(CNC(=O)C(C)n2nc(C)c3c(C)n(-c4ccccc4)nc3c2=O)c1 (centres undefined)	6%	/	2.4%	6%
CN1C2C=C(N(CCc3ccccc3)C(=O)c3ccc(Cl)cc3)CC1CC2 (centres undefined)	4%	-22	1.4%	2%
Cc1ccc([C@H]2C(C(=O)O)=CC[C@@H](c3ccc(C)cc3)N2S(=O)(=O)c2ccc(C)cc2)cc1	/	/	2.2%	14%
Cc1cc(C(=O)Nc2cccc3ncccc23)no1	14%	-3	5.5%	15%
Cc1ccc(Sc2ccc(NC(=O)c3ccc(S(C)(=O)=O)cc3Cl)cc2)cc1	2%	4	-1.8%	1%
Cc1ccc(NC(=O)CN(C)C(=O)C(c2ccccc2)c2ccccc2)cc1	/	/	0.4%	6%
CC(=O)Oc1ccc2ccccc2c1C(NC(=O)Cc1ccccc1)c1ccc(Cl)cc1 (centres undefined)	23%	0	0.4%	-6%
Cc1cccnc1NC(=O)C1CCN(S(=O)(=O)c2c(C)noc2/C=C/c2ccco2)CC1	-12%	-5	?	6%
Cc1cc(NC(=O)CSc2ccccn2)no1	0%	5	-1.4%	14%
CCOC(=O)c1cn[nH]c1NC(=S)Nc1ccccc1	-44%	-2	-1.3%	15%
Cc1[nH]n(-c2ccccc2)c(=O)c1C=Nc1ccc(S(=O)(=O)NC(N)=O)cc1	-2%	-7	6.5%	5%

Reformatted in markdown: entries from further up
| compound | miR-21 reporter | GLA inh pH 4.5 | Rango complex inh | Rango dissoc inh |
| --- | --- | --- | --- | --- |
| Cc1ccc(S(=O)(=O)N(C)c2ccc(C(=O)O)cc2)cc1 | -5% | 7 | -2.6% | -11% |
| Cc1cccnc1NC(=O)C1CCN(S(=O)(=O)c2c(C)noc2/C=C/c2ccco2)CC1 | -12% | -5 | ? | 6% |
| CCOC(=O)c1cn[nH]c1NC(=S)Nc1ccccc1 | -44% | -2 | -1.3% | 15% |

More compounds follow:
SMILES	miR-21 reporter	GLA inh pH 4.5	Rango complex inh	Rango dissoc inh
COc1ccc(S(=O)(=O)NC(CC(=O)NCc2ccco2)c2ccco2)cc1 (centres undefined)	-3%	-6	-2.8%	1%
Cc1cccc(/C=C/c2onc(C)c2S(=O)(=O)N2CCC(C(=O)NC(C)(C)C)CC2)c1	-1%	/	2.9%	-7%
COc1ccc(C(=O)C2CCCN(S(=O)(=O)c3ccc(C(C)=O)cc3)C2)c(C)c1 (centres undefined)	25%	/	-5.6%	18%
CCOC(=O)Cc1csc(NC(=O)c2ccc(Br)cc2)n1	23%	/	-4.7%	2%
Cc1ccc(-n2c(=S)[nH]c3sc4c(c3c2=O)CCC4)cc1	-7%	-4	-1.1%	1%
COc1cc2cc(C(C)(C)O)oc(=O)c2cc1OC	/	/	2.5%	5%
Cc1ccc(NC(=O)CCCNC(=O)c2ccc(Cl)cc2)c(O)c1	-65%	/	-0.7%	-3%
CC(C)(C)c1ccc(C(=O)NNC(=O)CCc2ccccc2)cc1	/	/	-2.7%	5%
CCn1c(CCCOc2ccc(Cl)cc2Cl)nnc1SCC(=O)Nc1cccc(F)c1	1%	3	1.6%	-6%
COc1ccc(CNc2ccccc2)cc1Br	-32%	0	-2.9%	-5%
CCc1cc(C(=O)NNC(=S)Nc2cccc(C)c2)cs1	-85%	-6	-1.0%	1%
CCOC(=O)c1ccc(NC(=O)c2nc[nH]c2C(=O)NCC(=O)OC(C)(C)C)cc1	8%	-10	1.4%	-3%
COC(=O)CCC(=O)OC1(C)C(=O)C2=CN(CCc3c[nH]c4ccccc34)C(c3ccc(OC)cc3)=CC2=C(Br)C1=O (centres undefined)	/	2	?	?
COC(=O)c1ccc(C2C(Oc3ccc(OC)cc3)C(=O)N2CCc2ccc(F)cc2)cc1 (centres undefined)	-2%	3	-0.2%	2%
CC[C@H](C)[C@H]1CNC(=S)N1CC1CCN(CCCCc2ccccc2)CC1	/	/	-1.1%	17%
O=C(NCc1ccc2c(c1)OCO2)c1ccc(CS(=O)(=O)Cc2cccc(Cl)c2)o1	4%	-9	3.5%	2%
O=C(O)c1cccc2c1-c1ccc(Cl)cc1C2	/	/	-0.1%	-12%
O=C(COC(=O)CSc1ccc([N+](=O)[O-])cc1)NCC1CCCO1 (centres undefined)	2%	/	0.4%	9%
CCOc1ccc(/C=N/NC(=O)Cn2ccnc2C)cc1	4%	0	0.6%	7%
Cc1ccc(Oc2ccc(Cl)cc2N)cc1	-32%	3	2.3%	-9%

Arranged by the number under GLA inh pH 4.5 (ascending): four from the list above
SMILES	miR-21 reporter	GLA inh pH 4.5	Rango complex inh	Rango dissoc inh
CCOC(=O)c1ccc(NC(=O)c2nc[nH]c2C(=O)NCC(=O)OC(C)(C)C)cc1	8%	-10	1.4%	-3%
O=C(NCc1ccc2c(c1)OCO2)c1ccc(CS(=O)(=O)Cc2cccc(Cl)c2)o1	4%	-9	3.5%	2%
Cc1ccc(-n2c(=S)[nH]c3sc4c(c3c2=O)CCC4)cc1	-7%	-4	-1.1%	1%
Cc1ccc(Oc2ccc(Cl)cc2N)cc1	-32%	3	2.3%	-9%

The list goes on:
SMILES	miR-21 reporter	GLA inh pH 4.5	Rango complex inh	Rango dissoc inh
COC(=O)NNC(=O)COc1cc(C)c(Br)cc1C(C)C	0%	9	0.5%	0%
CN1C2CCC1/C(=C\c1ccc(F)cc1)C(=O)/C2=C/c1ccc(F)cc1	-7%	2	4.4%	2%
CC(=O)Nc1ccccc1NC(=O)c1ccc(C)cc1C	-5%	1	-1.2%	-7%
CC[C@@H](C)CN1C(=O)N[C@@H](c2ccccc2)C(C(C)=O)=C1C	/	10	?	-14%
COC(=O)c1ccc(N2CCN(C(=O)c3ccccc3)CC2)c(NC(C)=O)c1	-1%	-5	2.2%	-5%
O=C(Cc1ccc(Cl)c(Cl)c1)Nc1ccccc1N1CCOCC1	-1%	2	-0.5%	17%
CCC(=O)Nc1ccc2nc(C3CC3)n(Cc3ccccc3)c(=O)c2c1	-32%	-5	9.8%	7%
CCOC(=O)c1cc(CC)sc1/N=C/c1c(O)ccc2ccccc12	-9%	1	?	-2%
COc1ccccc1NC(=O)CSc1nc2ccccc2nc1N1CC(C)OC(C)C1 (centres undefined)	8%	/	-3.4%	9%
CC(C)CNC(=O)CN(C1CCCCC1)S(C)(=O)=O	-5%	9	-2.9%	-11%
COc1cc(NC(=O)c2ccc([N+](=O)[O-])o2)ccc1NC(=O)c1cccs1	8%	-3	1.1%	-8%
O=c1[nH]c(N2CCOCC2)nc2ccccc12	1%	/	-0.6%	3%
Cc1ccccc1N(CC(=O)NCc1ccco1)C(=O)CNS(=O)(=O)c1ccc(F)cc1	-1%	/	0.8%	15%
COc1cc(C=O)ccc1OCCCCOc1ccccc1[N+](=O)[O-]	-17%	-11	0.9%	-6%
CCCn1nc(C(=O)Nc2ccc(-n3cnnn3)cc2)c2ccccc2c1=O	/	/	0.4%	1%
C[C@H](NC(=O)OC(C)(C)C)C(=O)NCC1CCC(C(=O)O)CC1 (some centres undefined)	-5%	/	2.1%	0%
COc1ccccc1C(CNC(=O)c1cccc(NS(=O)(=O)c2ccc(C)c(F)c2)c1)N(C)C (centres undefined)	/	/	-1.1%	1%
CCOc1ccc(NC(=O)CCn2c(=S)oc3ccccc32)cc1	-6%	/	2.3%	10%
O=C(Cn1cnc2c(cnn2-c2ccccc2)c1=O)NCc1ccccc1	0%	4	3.9%	-8%
CCOC(=O)c1[nH]c2cc3c(cc2c1NC(=O)CN1CCCC1)OCO3	0%	6	-3.5%	-2%
CCOC(=O)/C=c1\s/c(=C(\C#N)C(N)=O)n(-c2ccccc2)c1=O	0%	-1	?	-19%
O=C(COC(=O)CCc1c[nH]c2ccccc12)NCc1ccc2c(c1)OCO2	-4%	11	-1.0%	-10%
Cc1c(Cl)ccc2c1NC(=O)[C@]21N[C@@H](Cc2ccccc2)[C@H]2C(=O)N(c3ccc(F)cc3)C(=O)[C@H]21	29%	-7	-2.4%	6%
COc1cccc(C(=O)N2CCN(S(=O)(=O)Cc3ccccc3)CC2)c1	-2%	-5	-0.4%	-5%
S=C1Cc2ccccc2C(c2ccc(Cl)cc2)N1 (centres undefined)	-1%	/	?	?

Screening data: PubChem, National Center for Advancing Translational Sciences (NCATS)
